Screens deposited in PubChem BioAssay by several laboratories.
GALR2 ag = agonists of human galanin receptor 2 (GALR2). activation, %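 (tested at 5 µM)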. 0.48% of 140,000 active. GALR2-expressing cells, agonist activation read-out. O43603;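 active = above mean plus 3 SD of all compounds, about 5% in these data, not always enough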;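 also: 0% = vehicle buffer wells and 100% = reference agonist at full effect; tested in CHO reporter cells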
Target sequence (O43603 whole entry, looked up): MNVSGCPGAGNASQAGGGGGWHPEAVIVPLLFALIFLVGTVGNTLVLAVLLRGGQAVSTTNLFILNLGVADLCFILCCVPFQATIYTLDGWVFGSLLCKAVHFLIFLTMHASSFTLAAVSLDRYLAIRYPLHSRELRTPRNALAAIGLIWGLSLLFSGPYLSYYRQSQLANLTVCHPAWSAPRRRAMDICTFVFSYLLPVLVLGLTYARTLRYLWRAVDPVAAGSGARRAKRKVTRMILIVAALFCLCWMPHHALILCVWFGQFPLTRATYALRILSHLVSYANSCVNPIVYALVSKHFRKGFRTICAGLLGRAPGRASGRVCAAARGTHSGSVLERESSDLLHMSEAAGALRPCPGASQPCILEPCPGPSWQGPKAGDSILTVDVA
Insulin prom inh = TRM-6 insulin promoter activity inhibition; TRM-6 cells (human fetal islet line), insulin promoter-eGFP reporter, imaging; reporter expression induced with tamoxifen; inhibition, % at 2 µM; 0.9% of 130,000 active;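 active = inhibition above the mean plus 3 SD, with well images judged a real hit on visual review, cut at about 60% in these data, passing the limit was not always enough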
HSV augment = HSV replication enhancement; HSV replication augmentation in cells, fold increase; maximum fold increase; 0.005% of 220,000 active; AID 1956;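 active = peak rise of 1.5-fold or more in the series; tested in PC3 cells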;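 also: first round at 10 µM; read as green reporter fluorescence; hits show the peak of a series up to 25 µM; 1 = signal of infected wells without compound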
RGS16-Gao = modulates binding between human RGS16 and Galphao. O15492+P09471. bead-based flow cytometry RGS16-Galphao binding, fluorescence; actives lie on both sides. binding response (% of control), % at 10 µM. 0.38% of 220,000 active;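 active = below 25% or above 175%, edge rows of some plates excepted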;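 also: Galphao activated by GDP with aluminum fluoride before binding; 100% = wells without compound and 0% = beads without RGS; some results beyond the cut were filed as inactive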
Target sequence (O15492 whole entry, looked up): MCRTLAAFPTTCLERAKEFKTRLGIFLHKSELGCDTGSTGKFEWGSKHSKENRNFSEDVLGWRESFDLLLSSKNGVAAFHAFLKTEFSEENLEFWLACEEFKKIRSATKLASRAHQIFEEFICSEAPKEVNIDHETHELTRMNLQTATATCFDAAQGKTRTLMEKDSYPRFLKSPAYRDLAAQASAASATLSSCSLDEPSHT
Target sequence (P09471 whole entry, looked up): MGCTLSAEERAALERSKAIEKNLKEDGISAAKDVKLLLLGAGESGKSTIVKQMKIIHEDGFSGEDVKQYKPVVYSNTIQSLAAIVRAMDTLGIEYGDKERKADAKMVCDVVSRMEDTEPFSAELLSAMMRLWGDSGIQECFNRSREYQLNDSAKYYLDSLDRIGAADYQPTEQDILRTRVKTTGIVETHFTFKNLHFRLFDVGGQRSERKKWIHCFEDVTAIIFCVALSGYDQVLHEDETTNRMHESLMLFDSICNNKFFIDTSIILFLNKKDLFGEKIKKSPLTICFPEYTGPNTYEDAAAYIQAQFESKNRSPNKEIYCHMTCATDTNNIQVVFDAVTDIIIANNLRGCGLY
PKD1 inh = inhibitors of human PKD1 kinase; Q15139; PKD1 kinase fluorescence polarization assay; inhibition, %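 (about 10 µM by stock and volumes)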; 0.056% of 200,000 active;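 active = inhibition of 50% or more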;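 also: controls were vehicle for no effect and a reference inhibitor for full effect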
Insulin prom inh cell count = recorded beside Insulin prom inh, whose call it bears; normalized cell count, %; measured here: cell count, toxicity; reference of the scale not given here;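 cells exposed to compound for 48 h; stained nuclei by imaging scaled within each plate; lower means fewer cells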
HSV augment primary fold = second read-out of HSV augment, no call of its own (marks repeat the call); fold increase; compound at 10 µM; measured here: primary screen fold increase 10 uM; tested in PC3 cells;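 GFP signal in the first replicate; 1 = infected wells without compound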
* hit, by the source's call; i = inactive; . = no result given. Rows are unselected. About 1.3% of those tested had a hit in this group.

Value order – GALR2 ag, Insulin prom inh, Insulin prom inh cell count, HSV augment, HSV augment primary fold, RGS16-Gao, PKD1 inh
- CC(C)(C)c1ccc(C(=O)Nn2c(CCC(=O)O)ccc2-c2cccs2)cc1
  -0.7, -264, 113, i, 0.79, 70, -5
- COC(=O)c1ccc(N2C(=O)C3CC(C)=C(C)CC3C2=O)cc1 (stereo not drawn)
  ., ., ., i, 1.2, 101, 1
- CC12CCC(C(=O)N3CCC(Cc4ccccc4)CC3)(C(=O)C1=O)C2(C)C (stereo not drawn)
  ., 14, 75, i, 1, 98, -3
- CC(C)[C@H](NC(=O)c1ccccc1)C(=O)OCC(=O)N1CCN(C(=O)c2ccco2)CC1
  ., 33, 145, i, 0.97, 103, 6
- N/C(=N\OC(=O)c1cccc(Cn2cc(C(F)(F)F)ccc2=O)c1)c1ccc(Cl)cc1
  ., ., ., i, 1.2, 105, .
- CCN(CC)S(=O)(=O)c1cccc(NC(=O)c2cncc(Br)c2)c1
  ., ., ., i, 0.92, 116, -2
- COc1cccc2sc(NNC(=O)COc3ccccc3)nc12
  ., 53, 83, i, 0.64, 100, -6
- Cn1cc(C(=O)N2CCN(C(=O)c3ccco3)CC2)c2c3ccccc3n(C)c2c1=O
  -0.6, ., ., i, 0.89, 102, 1
- CCOC(=O)c1sc(SC)c2c1CCCC2=O
  ., ., ., i, 1.1, 99, .
- COc1ccc(NC(=O)NCCCN2CCCC2=O)cc1
  -1.4, ., ., i, 1.2, 100, 0
- Cc1ccc(C)c(/C=N/Nc2ccccn2)c1
  ., ., ., i, 1, 99, 2
- CN(/N=C/c1cc([N+](=O)[O-])ccc1O)c1ccccc1
  -1.4, ., ., i, 1.1, 63, -9
- O=C(NC1CCCCCCC1)C1CCN(c2nc3ccccc3o2)CC1
  0.3, 33, 13, i, 0.94, 107, -6
- Cc1cc(C)n(C(=O)c2ccc(C)c(F)c2F)n1
  -0.4, ., ., i, 1.1, 103, -3
- CCOC(=O)c1c(C2CCN(C(=O)OCC)CC2)nc2ccccn12
  -1.0, ., ., i, 0.83, 58, -8
- CNC(=S)N/N=C/c1ccco1
  ., ., ., i, 1.1, 97, .
- CC(C)n1c(SC2CCOC2=O)nc2ccccc21 (stereo not drawn)
  -1.2, ., ., ., ., 99, -6
- CCc1nc(OCc2ccco2)c2sc3nc4c(cc3c2n1)COC(C)(C)C4
  2.8, -195, 111, i, 0.95, 101, -5
- O=C(NNC(=O)c1cccs1)c1ccncc1
  ., ., ., i, 0.89, 102, 0
- COc1cccc(C(=O)C2CCCN(Cc3cn(C)nc3-c3ccccc3)C2)c1 (stereo not drawn)
  ., ., ., i, 1.1, 93, -7
- CC1CCC2(CC1)NC(=O)N(CC(=O)c1cccn1C)C2=O (stereo not drawn)
  -1.0, 3, 113, i, 1.1, 99, -10
- CC(C)(C)C(=O)NC(=S)Nc1ccccc1C(=O)Nc1ccccc1
  -0.8, ., ., i, 1.3, 106, 1
- CC12CCC(C(=O)Nc3nccs3)(OC1=O)C2(C)C (stereo not drawn)
  -1.2, 0, 184, i, 0.91, 106, -3
- CCCc1c2ccccc2nc2ccccc12
  0.2, 85*, 122*, i, 0.91, 118, 0
- O=C(NC1CCS(=O)(=O)C1)C1CCCN(S(=O)(=O)c2ccc(Cl)cc2)C1 (stereo not drawn)
  -0.5, ., ., i, 0.98, 109, 3
- CC(C)(C)c1ccc(OCCNC(=S)NC(=O)c2cccnc2)cc1
  -0.6, 52, 69, i, 0.83, 101, -22
- COc1cc(-c2c(C#N)c(=O)[nH]c3c2c(C)nn3-c2ccccc2)ccc1O
  -1.6, ., ., i, 1, 101, -8
- Cc1nc(N2CCCCC2)sc1C(=O)c1ccc(Cl)c([N+](=O)[O-])c1
  ., ., ., i, 0.96, 99, -5
- C=CCN(c1ccc(C(=O)N2CCN(c3ccc(F)cc3)CC2)cc1)S(C)(=O)=O
  -3.2, -150, 107, i, 0.97, 108, 2
- COc1ccc(Cn2nnnc2CN2CCc3ccccc32)cc1
  -2.0, 6, 88, i, 0.78, 105, 7
- COc1ccc(C2NC(=O)c3n[nH]c(C)c32)c(OC)c1 (stereo not drawn)
  -0.3, ., ., i, 0.88, 103, 4
- O=C(NCc1ccccc1)C1(c2ccccc2)CCN(S(=O)(=O)c2ccccc2)CC1
  0.6, -25, 92, i, 0.95, 97, 0
- COc1cc(/C=C(/C#N)C(=O)Nc2ccccc2)c(Br)cc1OCc1ccc(C(=O)O)cc1
  ., ., ., i, 0.76, 81, .
- O=C(NCC1CCCO1)c1cncc(Br)c1 (stereo not drawn)
  ., ., ., i, 1, 101, -10
- CN(CCO)c1cc(N2CCC3(CC2)OCCO3)c2nonc2c1[N+](=O)[O-]
  1.3, -49, 132, i, 0.82, 100, -5
- Cc1nc2ccccc2nc(=O)c1NNc1ccc([N+](=O)[O-])cc1
  ., ., ., i, 1, 96, 0
- Cc1nc(C/C(=N\N)c2ccc(O)cc2O)cs1
  ., ., ., i, 0.94, 104, 7
- CC(C)Oc1ccc(C2CC(=O)N(c3ccc(C(=O)O)cc3)C2=O)cc1 (stereo not drawn)
  ., -26, 147, i, 0.94, 105, -6
- NC(=O)CN1CCN(S(=O)(=O)c2ccc(Br)cc2)CC1
  ., 12, 98, i, 0.86, 103, -6
- COc1ccc(OCC(=O)Nc2ccccc2C(=O)NC(C)C)cc1
  ., ., ., i, 0.83, 100, -3
- O=C1c2cccc3cccc(c23)C(=O)N1Cc1ccccc1
  ., ., ., i, 1, 106, 1
- Cc1cccc(NC(=O)C(c2ccccc2Cl)N2CCOCC2)c1 (stereo not drawn)
  ., 7, 88, i, 0.86, 53, -2
- O=C1NC(=O)/C(=C\c2ccc(Cl)nc2)S1
  ., -36, 223, i, 1, 101, -11
- O=C(Cn1nc(-c2ccc3c(c2)OCCO3)ccc1=O)Nc1cccc(NC(=O)c2ccccn2)c1
  ., -45, 102, i, 0.79, 91, -2
- CC1=NN(c2nc(-c3ccc(F)cc3)cs2)C(=O)C1
  -3.6, 8, 169, i, 0.92, 103, -4
- CCCN1CCN(c2ncnc3scc(C4COc5ccccc5O4)c23)CC1 (stereo not drawn)
  ., ., ., i, 1, 116, 8
- Cc1ccc(CNC(=O)C2CC(c3ccc([N+](=O)[O-])cc3)=NO2)cc1 (stereo not drawn)
  1.3, 0, 136, i, 0.7, 91, 3
- CCCc1cnc(NCCNCC(O)COc2ccc(Cl)c(Cl)c2)nc1 (stereo not drawn)
  ., ., ., i, 0.56, 105, .
- CCCCn1ccc(O)c(Cc2ccc(F)cc2)c1=O
  -0.7, 23, 92, i, 0.99, 100, -7
- COc1ccc(CNC(=S)Nc2ccc(F)c(Cl)c2)cc1
  ., ., ., i, 1.2, 108, 6

Single records (already shown):
CCc1nc(OCc2ccco2)c2sc3nc4c(cc3c2n1)COC(C)(C)C4 as listed: GALR2 ag = 2.8; Insulin prom inh = -195; Insulin prom inh cell count = 111; HSV augment = i; HSV augment primary fold = 0.95; RGS16-Gao = 101; PKD1 inh = -5
O=C(NC1CCS(=O)(=O)C1)C1CCCN(S(=O)(=O)c2ccc(Cl)cc2)C1 (stereo not drawn) as listed: GALR2 ag = -0.5; Insulin prom inh = .; Insulin prom inh cell count = .; HSV augment = i; HSV augment primary fold = 0.98; RGS16-Gao = 109; PKD1 inh = 3

The list continues:
Value order – GALR2 ag, Insulin prom inh, Insulin prom inh cell count, HSV augment, HSV augment primary fold, RGS16-Gao, PKD1 inh
- O=c1[nH]cnc2c1N1CCC2CC1
  0.0, ., ., i, 0.83, 101, -8
- COc1cc(CC(=O)NCc2ccco2)cc(OC)c1OC
  0.1, 4, 177, i, 0.93, 98, -2
- Cc1c(Cl)c([N+](=O)[O-])nn1CC(=O)Nc1ccc2c(c1)OCO2
  -0.8, -53, 79, i, 0.86, 104, -2
- CC(C)(C)c1ccc(N=C2SCC(=O)N2Cc2cccs2)cc1
  ., ., ., i, 0.78, 103, .
- CCn1nc(C)c(/C=N/NC(=O)Cn2nnnc2N)c1C
  ., ., ., i, 1, 105, .
- COc1ccc(C(=O)NC(C(=O)N2CCc3ccccc32)C(C)C)cc1 (stereo not drawn)
  0.0, 13, 152, i, 0.83, 105, -9
- COC(=O)C(c1cc(OC)c(O)c(OC)c1)(N1CCNC(C)C1)C(F)(F)F (stereo not drawn)
  -1.5, -15, 119, i, 0.93, 103, -1
- Cc1nnc(SCC(=O)Nc2nsc(-c3ccccc3)n2)s1
  -1.7, -4, 143, i, 1.2, 99, -2
- O=C(CSc1nc2cc(Cl)ccc2s1)NCc1ccc2c(c1)OCO2
  -1.4, 15, 58, i, 1, 18, -7
- COc1ccc(Oc2cc(F)nc(N)n2)cc1
  -1.9, 14, 116, i, 1.1, 106, 0
- COc1ccc(N(CC(=O)O)S(C)(=O)=O)cc1OC
  -0.9, -189, 120, i, 0.78, 76, -14
- O=[N+]([O-])c1ccc(Sc2nccn2Cc2ccccc2)c([N+](=O)[O-])c1
  -0.2, 16, 150, i, 0.82, 79, 2
- NC(=O)CSc1nc2scc(-c3ccc(Cl)cc3)c2c(=O)n1Cc1ccccc1
  1.3, ., ., i, 1.1, 102, 1
- O=C(Nc1ccc(Cl)cc1)c1cc2nc(-c3ccco3)cc(C(F)(F)F)n2n1
  3.1, 71*, 46*, i, 1.1, 100, 5
- CCCCC(CCC(=O)O)(C(=O)OCC)c1csc(Nc2ccc(C)cc2)n1 (stereo not drawn)
  ., 53, 123, i, 0.93, 10.0*, 3
- CCCCn1nc(C(=O)O)ccc1=O
  -1.7, ., ., i, 0.99, 113, 0
- CCc1nnc2sc(-c3ccc(NC(=O)c4ccc5c(c4)OCCO5)cc3)nn12
  -4.0, ., ., i, 0.88, 104, -3
- Cn1cnnc1SCc1ccc(C(=O)N/N=C(\CCC(=O)O)c2ccc(C(C)(C)C)cc2)cc1
  -1.1, 43, 117, i, 1.1, 100, 3
- Cc1ccc(SCc2cn3ccccc3n2)cc1
  ., ., ., i, 0.85, 99, .
- CCOC(=O)c1c(CSc2ccccc2)n(C)c2ccc(O)c(CN3CCN(C)CC3)c12
  ., ., ., i, 0.96, 98, .
- COc1ccc(CCNC(=O)COc2ccc(C)nc2[N+](=O)[O-])cc1OC
  ., -71, 20, ., ., 112, -3
- Cc1ccccc1Nc1nc(N)nc(CSc2nc3ccccc3s2)n1
  0.3, 7, 124, i, 0.81, 97, -2
- O=C(O)CN1CCCC1=Nc1ccccc1
  -1.6, 25, 91, i, 0.81, 83, -2
- O=C(N/N=C/c1ccco1)c1ccc(N2CCCC2=O)cc1
  0.4, ., ., i, 0.87, 101, 3
- CC(C)(C)NS(=O)(=O)c1ccc(CCC(=O)NCc2cccnc2)cc1
  -0.9, 64, 120, i, 0.89, 108, 0
- Cc1noc(C)c1NC(=O)NCCN1CCN(Cc2ccccc2)CC1
  ., ., ., i, 1, 96, .
- Cc1nn(C)c(C)c1NC(=O)c1ccnn1C
  -1.6, 72*, 68*, i, 0.92, 99, -1
- CCN(C(=O)CSc1ncn[nH]1)C1CCCCC1
  -2.8, 38, 109, i, 0.82, 75, -1
- COC(=O)[C@@]1(Cc2ccc(F)cc2)[C@H]2c3cc(C(=O)N4CCCC4)n(CCO)c3C[C@H]2CN1C(=O)c1ccccc1
  -1.8, 5, 125, i, 0.89, 57, -8
- O=C(CCCc1nc(-c2ccccc2Cl)no1)NC1CCCCC1
  -1.7, -150, 103, i, 0.91, 99, -5
- O=C(Cn1nnc(-c2cccc(C(F)(F)F)c2)n1)N1CCOCC1
  -1.8, ., ., i, 0.99, 126, 0
- CCCS(=O)(=O)N1CCN(C(=O)c2cccs2)CC1
  -1.3, -8, 114, i, 0.86, 96, 0
- C(=C\c1ccccc1)/C=N/N1CCN(Cc2ccccc2)CC1
  ., -17, 69, i, 0.91, 75, 10
- O=C(COc1ccc(/C=N/NC(=O)CSCc2ccc([N+](=O)[O-])cc2)cc1)NCc1ccco1
  0.7, 14, 80, i, 1.1, 107, -5
- Cc1ccc(S(=O)(=O)n2nccc2-c2c(-c3ccc(Cl)cc3)noc2C)cc1
  ., ., ., i, 1, 97, .
- O=C(NCc1cccnc1)/C(=C\c1ccc(-c2ccc(Cl)c(Cl)c2)o1)S(=O)(=O)c1ccccc1
  -0.4, -93, 94, i, 0.64, 98, -5
- O=c1c2ccccc2[nH]c(=S)n1Cc1cccs1
  -0.7, 29, 88, i, 0.87, 114, -5
- CC(=O)c1c(OC(=O)c2ccco2)c2ccccc2n1C
  -1.3, ., ., ., ., 103, -2
- Cc1cccc(C)c1OCC(=O)NCc1nnc(SCC(=O)NC2CCCCC2)n1C
  -1.6, -105, 98, i, 1.2, 99, 4
- Cc1ccn2c(NCc3ccc4c(c3)OCO4)c(-c3ccc(O)cc3)nc2c1
  -0.1, ., ., i, 0.95, 181, -4
- CCc1ccc(C(=O)CN(C#N)c2nc(C)cc(C)n2)cc1
  -1.7, 11, 167, i, 0.81, 108, -7
- Cc1ccc(S(=O)(=O)NCC(=O)N2CCCCC2)cc1
  -3.4, ., ., i, 0.99, 102, -1
